# Screens from PubChem.
# PINK1 modulator: modulators of PINK1 expression; Potency, µM (doses to about 76.6 µM), for the others: at the highest dose activation (PINK1 increase), hits mostly activators; AID 624263; 410,000 tested, 0.2% active; PINK1 immunofluorescence, high-content cytometry, 24 h; active = well fitted activation curve with a large enough effect; inconclusive = small, poorly fitted or top-dose-only effect; inactive = flat fitted curve, though single readings scatter; cell line not stated here;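 note: potency is the fitted concentration of half-maximal effect; % of control where 0% means no effect; nearly all actives have a fitted effect of over 65% in size; a mitochondrial uncoupler was the plate control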
#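 Decision-based qHTS: stable cells, 24 h exposure to five compound concentrations, CCCP as control. Fixed cells stained for PINK1 plus nuclear, mitochondrial and cell markers, cytometer read.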
# TRPV1 PAM: human TRPV1 potentiation | Q8NER1 | TRPV1-expressing cells, Fluo-8 calcium influx, capsaicin EC20 potentiation; host cell line not named in the record; control for the full effect not named in the record | potentiation, % at 8.33 µM | 320,000 tested, 0.02% active; active means potentiation above 80%; inconclusive means 30% to 80%; inactive means below 30%; note: 0% is about no effect
#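 TRPV1-expressing cells were cultured overnight at 35.5C and loaded with Fluo-8 calcium dye for 40 to 90 min at room temperature. After a 10 s baseline, compound was added and calcium influx was read kinetically for 3 min (ex 480/em 520 nm).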
# D2 PAM: potentiates the human D2 dopamine receptor allosterically; 360,000 tested, 0.23% active; DiscoveRx D2 beta-arrestin cells, luminescence, 90 min; 100% = 57 uM dopamine signal; P14416; potentiation, % (no concentration beside the values); AID 624464; active = potentiation of 50% or more; inconclusive = 30% to 50%; inactive = 30% or less;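 note: compound concentration not given in the record; tested on top of an EC20 dose of dopamine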
#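 PathHunter beta-arrestin assay in DiscoveRx D2 cells. Compounds were added with an EC20 of dopamine (50 nM final) for 90 min at 37 deg C. Luminescence was read 1 h after detection reagent, with 57 uM dopamine as the EC100 control.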
# CtBP-E1A blk: CtBP/E1A binding inhibition. 340,000 tested, 0.49% active. AlphaScreen GST-E1A/His-CtBP binding, 1536-well; stronger effect = lower value; control for the full effect not named in the record. AID 651724. activity change, % (no concentration beside the values); in the data active means activity change below about -65%; inconclusive means about -30% to -65%; inactive means above about -30%; note: % is set by controls: 0 for no effect and ±100 for the full control effect; compound concentration not given in the record
#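 Protein mix (5X: 125 nM each GST-E1A, His-CtBP) was incubated with pinned compound 2 h at 37 deg C in dark, in 50 mM Tris pH 8.0 buffer with 300 mM NaCl. Glutathione donor and nickel acceptor beads followed; AlphaScreen signal read after 1 h.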
# Sfp PPTase inh: Sfp phosphopantetheinyl transferase inhibition; 310,000 tested, 3.5% active; Biochemical Sfp PPTase activity, qHTS; Potency, µM, without a hit: max response, negative = inhibition, actives largely listed as inhibitors; active = well fitted inhibition curve with a large enough effect; inconclusive = small, poorly fitted or top-dose-only effect, or another doubt; inactive = no such curve, though single readings can be large or run the other way;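 note: the enzyme is Sfp with the accession as filed and its product quenches rhodamine fluorescence; potency is the fitted concentration of half-maximal effect; 0% = enzyme reaction without inhibitor and -100% = no enzyme wells; top concentration of the series not given in the record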
#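 Step 1, compound plus 15 nM Sfp-PPTase, 15 min, room temperature. Step 2, add rhodamine-CoA (5 uM) and BHQ-2-YbbR (12.5 uM). Step 3, read 525/598 nm fluorescence at 0 and 30 min.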
# D2 ag: agonists of human D2 dopamine receptor (beta-arrestin) | P14416 | DiscoveRx PathHunter D2 beta-arrestin, luminescence, 90 min; 100% = 57 uM dopamine signal | activation, % (concentration not given with the values) | 360,000 tested, 0.084% active; in the data active = activation above about 40%; inconclusive = about 15% to 40%; inactive = below about 15%; note: compound concentration not given in the record; the text of the record calls up to 30% inactive
#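 DiscoveRx PathHunter D2 beta-arrestin cells (2,100/well) attached overnight, then compound-stimulated 90 min at 37 C in HBSS/10 mM HEPES/0.1% Tween-20 buffer; beta-galactosidase complementation read by luminescence after 1 h at ambient temperature. Dopamine 57 uM final (EC100) as control.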
# Six1-Eya2 inh: inhibitors of human Six1/Eya2 interaction. AID 651725. AlphaScreen GST-Six1/His-Eya2 binding, biochemical; stronger effect = lower value; control for the full effect not named in the record. 360,000 tested, 0.56% active. activity change, % (test concentration not listed); in the data active = activity change below about -65%; inconclusive = about -30% to -65%; inactive = above about -30%; note: % is set by controls: 0 for no effect and ±100 for the full control effect; compound concentration not given in the record
# Target sequence (O00167 whole entry, looked up): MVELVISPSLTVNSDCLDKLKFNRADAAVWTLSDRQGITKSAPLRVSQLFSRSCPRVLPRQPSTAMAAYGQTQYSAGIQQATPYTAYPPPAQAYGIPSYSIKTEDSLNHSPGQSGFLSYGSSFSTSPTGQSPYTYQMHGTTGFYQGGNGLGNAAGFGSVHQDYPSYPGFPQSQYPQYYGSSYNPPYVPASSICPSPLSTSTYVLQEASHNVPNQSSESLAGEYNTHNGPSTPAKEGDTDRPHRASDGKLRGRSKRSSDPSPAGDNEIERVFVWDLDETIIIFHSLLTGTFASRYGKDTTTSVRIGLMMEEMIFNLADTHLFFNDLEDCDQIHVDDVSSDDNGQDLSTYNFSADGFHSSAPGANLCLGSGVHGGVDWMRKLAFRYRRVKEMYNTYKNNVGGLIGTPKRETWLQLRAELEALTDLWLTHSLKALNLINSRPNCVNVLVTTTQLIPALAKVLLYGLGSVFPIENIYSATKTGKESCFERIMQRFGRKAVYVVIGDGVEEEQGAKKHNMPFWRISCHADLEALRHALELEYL
# Target sequence (Q15475 whole entry, looked up): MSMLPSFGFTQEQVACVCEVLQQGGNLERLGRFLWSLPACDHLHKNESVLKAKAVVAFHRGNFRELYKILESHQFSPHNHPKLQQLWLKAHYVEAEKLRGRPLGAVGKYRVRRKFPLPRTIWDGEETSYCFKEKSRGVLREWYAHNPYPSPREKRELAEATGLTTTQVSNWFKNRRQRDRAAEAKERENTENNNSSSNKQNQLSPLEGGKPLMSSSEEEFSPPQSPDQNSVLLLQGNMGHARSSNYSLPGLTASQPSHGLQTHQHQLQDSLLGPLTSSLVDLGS
#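 Compounds are tested against tagged Six1 and Eya2 proteins bridged by glutathione donor and nickel acceptor beads; after a one-hour incubation at 37 °C without light, AlphaScreen emission is recorded.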
# * hit, by the source's call; ? = inconclusive; / = not tested or not shown; & = joins results of further samples; [ ] = another dose, or the depositor's remark.
nr	SMILES	PINK1 modulator	TRPV1 PAM	D2 PAM	CtBP-E1A blk
1	CC1CCCC(C)N1C(=O)CN1C(=O)NC2(CCCCCC2)C1=O (stereo unspecified)	0.5%	/	-5	3
2	O=C(NCCc1ccc(Cl)cc1)C1CCCN1C(=O)Nc1ccc(F)cc1 (stereo unspecified)	1.4%	-8	-4	-2
3	O=C(NCCC1=CCCCC1)C(=O)NCc1ccccc1Cl	5.7%[38.3 µM]	6	1	1
4	COc1ccc(NC(=O)C2CC(=O)N(C(C)C)C2)cc1 (stereo unspecified)	-0.8%	-8	-3	1
5	CCOc1ccccc1N1CCN(S(=O)(=O)c2ccc(Cl)s2)CC1	1.8%[38.3 µM]	7	-8	9
6	COc1cc(/C=N/Nc2nncc3ccccc23)cc(OC)c1OC	-0.5%	1	3	/
7	CC(C)(C)C(=O)NC1=NN(c2c(Cl)cc(Cl)cc2Cl)C(=O)C1	0.0%	-7	-2	/
8	COc1ccc(Cc2nc3ccc(C(=O)N(C)CC4COCCO4)cc3o2)cc1 (stereo unspecified)	1.6%	-18	2	-10
9	O=C(COc1ccc2ccccc2c1)NCC(=O)N/N=C/c1ccco1	-1.4%[38.3 µM]	8	-4	2
10	CCCCOCC1CN(c2ccccc2)C(=O)CS1 (stereo unspecified)	0.8%	7	-25	9
11	Clc1cccc(N/N=C(\Cc2nc3ccccc3[nH]2)c2ccccc2)c1	?	6	-23	-4
12	COc1ccc(CCNC(=O)CN2C(=O)C3(OCCCO3)c3ccccc32)cc1OC	-1.1%[38.3 µM]	1	-10	-7
13	C#CC[N+](CC)(CC)CC#Cc1ccccc1	4.2%	4	0	-5
14	CCOC(=O)[C@]12CCC=C1N(Cc1ccco1)C(=O)[C@H](CC(=O)N1CCN(C(=O)c3ccco3)CC1)C2	0.1%	/	/	1
15	CCCCN(C)CCNC(=O)c1ccc2c(c1)NC(=O)C(N1CCCCC1)S2 (stereo unspecified)	-1.3%	1	-42	1

nr	Sfp PPTase inh	D2 ag	Six1-Eya2 inh
1	/	-2.8	2
2	7%	-6.5	1
3	16%	1.8	5
4	11%	-1.1	9
5	0%	0.7	7
6	?	1.8	-27
7	9%	-4.7	0
8	7%	-0.3	-3
9	?	0.3	0
10	3%	-2.0	0
11	45%[activator]	-0.3	-9
12	-8%	-0.5	-2
13	11%	-6.0	12
14	/	/	-1
15	-2%	-0.6	0

# The results go on.
nr	SMILES	PINK1 modulator	TRPV1 PAM	D2 PAM	CtBP-E1A blk
16	COc1ccc(NC(=O)C2CCCO2)c(OC)c1 (stereo unspecified)	-0.5%	-1	-7	2
17	CCCCCCCNC(=O)C1CC(=O)N(C)C(=Nc2ccc(OC)cc2)S1 (stereo unspecified)	2.7%	2	-13	6
18	COc1ccc(CNC(=O)c2cccc3c(-c4cccc(C(N)=O)c4)coc23)cc1OC	0.2%	/	11	?
19	O=S(=O)(NCCSc1ccccn1)c1ccc(Cl)cc1	0.7%	5	-4	0
20	COc1ccc(CNC(=O)C2CCN(C(=O)c3csc(Nc4ccc(C)cc4)n3)CC2)cc1	0.0%	21	-4	25
21	COc1cc2c(cc1OC)CN(Cc1cc(OC)c(O)c(OC)c1)CC2	0.3%	0	-31	5
22	COC(=O)c1cc2c(N)c(C(=O)c3ccccc3)sc2nc1C(OC)OC	0.3%	-11	-2	5
23	O=C(CSc1nnc(-c2ccc(Br)cc2)o1)N1CCN(C(=O)c2ccco2)CC1	4.3%[38.3 µM]	20	1	1
24	Cc1cc(N2CCN(C(c3ccccc3)c3ccc(Cl)cc3)CC2)n2ncnc2n1 (stereo unspecified)	2.1%	-6	-4	-3
25	O=C(Nc1nc(-c2ccc(F)cc2)cs1)c1cccnc1	7.4%	-1	-7	7
26	Cc1ccc(CNC(=O)c2cc3c(C)nc4ccccc4c3o2)cc1	4.2%	0	-9	?
27	CC(Nc1nc(-c2ccc(F)cc2)cs1)c1nc2cc(Cl)c(Cl)cc2n1CCCO (stereo unspecified)	4.0%	/	0	0
28	CCOC(=O)c1ccc(NC(=O)c2ccc(CO)c(C(=O)NC3CCN(C(=O)OCC)CC3)c2)cc1	2.7%	11	2	1
29	CCOC(=O)CSc1nc2ccccc2c(=O)n1-c1ccc(C)cn1	-2.5%	1	-7	3
30	CCn1c(=O)n(CC)c2cc(N3CCCC3)c(NC(=O)c3cc(Cl)ccc3OC)cc21	0.1%	-10	-4	5

nr	Sfp PPTase inh	D2 ag	Six1-Eya2 inh
16	17%	4.2	9
17	-9%	-0.1	7
18	/	5.3	?
19	-2%	-4.8	-9
20	?	-4.3	-10
21	3%	-7.9	1
22	-5%	0.7	-5
23	10%	2.3	-1
24	-22%	-4.3	2
25	-6%	-3.9	0
26	18%	-3.4	-15
27	/	2.6	12
28	-6%	-0.3	-3
29	5%	-1.9	0
30	?	-2.1	-2

# Further results follow.
nr	SMILES	PINK1 modulator	TRPV1 PAM	D2 PAM	CtBP-E1A blk
31	COC(=O)C(NC(=O)CCC(=O)N[C@@H](C(=O)OC)c1ccccc1)c1ccccc1 (stereo partly specified)	-0.9%	-16	-34	1
32	C[C@@H]1CCCCO[C@@H](CN(C)S(=O)(=O)c2ccc(F)cc2)[C@@H](C)CN([C@H](C)CO)C(=O)c2cc(N(C)C)ccc2O1	4.3%	/	-12	-3
33	COc1cccc(C2CC(C(F)(F)F)n3ncc(C(=O)Nc4c(C)n(C)n(-c5ccccc5)c4=O)c3N2)c1 (stereo unspecified)	0.2%	3	13	-5
34	COCCn1c(SC(C(=O)Nc2cc(C)ccc2OC)c2ccccc2)nnc1-c1ccc(Cl)cc1 (stereo unspecified)	1.4%	9	-5	0
35	COC(=O)c1cccc(NC(=O)CCSc2ccc(Cl)cc2)c1C	11%	-7	-12	8
36	Cc1ccc(C(=O)Nc2nccs2)s1	1.2%	-3	-8	-10
37	CCOc1ccc(C(=O)Nc2cccc(-c3ccc4nncn4n3)c2)cc1	2.4%	1	-1	-10
38	Cc1cc(N/N=C/c2ccccc2F)c2ccccc2n1	0.6%	12	-1	8
39	COCc1nnc(NC(=O)c2cc(C(=O)OC)cc([N+](=O)[O-])c2)s1	-0.4%	0	22	-1
40	CCc1noc(C)c1C(=O)Nc1cc(S(=O)(=O)N2CCOCC2)ccc1OCC(F)(F)F	-1.2%	-8	-17	-24
41	COc1ccccc1N1CCN(CCC(=O)Nc2cccc(F)c2)CC1	0.6%&0.9%	/	-42	-6
42	CC(Cn1cncn1)NC(=O)c1cc(COc2cccc(C(F)(F)F)c2)on1 (stereo unspecified)	6.8%	-1	-7	-2
43	O=c1oc2c(CN3CCOCC3)c(O)ccc2c2c1CCC2	2.6%	21	-8	6
44	O=C(N/N=C/c1cc(Cl)c(O)c(Cl)c1)c1cc2c(ccc3ccccc32)o1	0.1%	4	-8	?
45	O=C(CN1CCN(Cc2ccc(F)cc2Cl)C1=O)NCCCN1CCOCC1	1.1%	?	-6	5

nr	Sfp PPTase inh	D2 ag	Six1-Eya2 inh
31	8%	0.4	4
32	/	-7.0	-13
33	14%	-1.9	-6
34	5%	-1.9	5
35	7%	-0.4	10
36	6%	5.9	-14
37	15%	1.3	-3
38	20%	2.7	-7
39	-14%	-1.0	0
40	/	2.1	-6
41	/	2.2	-9
42	3%	-4.7	0
43	13%	-2.6	-2
44	?	0.2	-26
45	1%	-3.6	5

# Looked up by structure from the entries so far (two):
nr	SMILES	PINK1 modulator	TRPV1 PAM	D2 PAM	CtBP-E1A blk
43	O=c1oc2c(CN3CCOCC3)c(O)ccc2c2c1CCC2	2.6%	21	-8	6
41	COc1ccccc1N1CCN(CCC(=O)Nc2cccc(F)c2)CC1	0.6%&0.9%	/	-42	-6

nr	Sfp PPTase inh	D2 ag	Six1-Eya2 inh
43	13%	-2.6	-2
41	/	2.2	-9

# (cont.)
nr	SMILES	PINK1 modulator	TRPV1 PAM	D2 PAM	CtBP-E1A blk
46	Cc1ccc(NC(=S)NC(NC(=O)N(C)C)C(Cl)(Cl)Cl)cc1 (stereo unspecified)	-1.2%	2	-9	-6
47	Cc1ccc(NC(=O)C2C3C=CC4(O3)C2C(=O)N(CCCN2CCCCC2)C4C(=O)NC2CCCCC2)cc1Cl (stereo unspecified)	5.6%	5	-18	1
48	CC(C)C(C)NC(=O)COC(=O)C1CCN(S(=O)(=O)c2ccc3c(c2)OCCO3)CC1 (stereo unspecified)	0.4%	6	16	5
49	CC1=C(C(=O)Nc2ccccc2C)C(c2cccnc2)n2nc(CCCO)nc2N1 (stereo unspecified)	1.5%	2	-4	-3
50	O=S(=O)(Nc1ncccn1)c1ccc(NC(=S)N2CCN(Cc3ccc(F)cc3Cl)CC2)cc1	0.1%	-5	18	-3
51	COc1ccc(-c2cnc3c(NC(C)=O)cc(-c4ccc(C(=O)N5CCOCC5)cc4)cn23)cc1OC	0.3%	/	0	-10
52	CC(C)(C)NC(=O)C1c2ccccc2OCC(=O)N1Cc1ccco1 (stereo unspecified)	-0.7%	/	/	2
53	COc1ccc(N2C(=O)C(CC(=O)Nc3ccccc3)N(Cc3ccccn3)C2=S)cc1 (stereo unspecified)	14%	-2	-3	0
54	C/C(CC(=O)Nc1cccc(F)c1)=N\NC(=O)C(=O)NC1CCCCC1	-0.7%	7	-4	/
55	CCOCCCNC(=S)N1CCCN(c2nc3cc(C)c(C)cc3cc2C#N)CC1	0.1%	-5	-7	30
56	Cc1nc2scc(-c3ccc(Cl)cc3)c2c(=O)o1	-1.4%[38.3 µM]	-9	11	2

nr	Sfp PPTase inh	D2 ag	Six1-Eya2 inh
46	7%	-1.0	7
47	3%	-0.7	8
48	/	-1.2	1
49	9%	-15	-7
50	15%	-2.1	-8
51	/	9.4	-2
52	/	/	6
53	12%	1.6	-5
54	6%	-4.1	4
55	?	-2.9	25
56	17%	-0.1	3

# Along the list, quoted from above:
# Entries 2–8 in CtBP-E1A blk read -2, 1, 1, 9, /, /, -10

# 2 consecutive entries already listed, quoted:
nr	SMILES	PINK1 modulator	TRPV1 PAM	D2 PAM	CtBP-E1A blk
55	CCOCCCNC(=S)N1CCCN(c2nc3cc(C)c(C)cc3cc2C#N)CC1	0.1%	-5	-7	30
56	Cc1nc2scc(-c3ccc(Cl)cc3)c2c(=O)o1	-1.4%[38.3 µM]	-9	11	2

nr	Sfp PPTase inh	D2 ag	Six1-Eya2 inh
55	?	-2.9	25
56	17%	-0.1	3
